Screens as filed in PubChem BioAssay.
gsp antagonist: qHTS for Antagonists of gsp, the Etiologic Mutation Responsible for Fibrous Dysplasia/McCune-Albright Syndrome: qHTS; actives 0.4% (n = 340,000); gsp-mutant cells, cAMP HTRF, 30 min; control for the full effect not named in the record; Potency, µM (titrated, usually from 76.9 µM), without a hit: at the top dose activity change, negative = inhibition, actives largely listed as inhibitors; active = falling curve of any shape with a large fitted effect; inconclusive = falling curve, mostly with a smaller effect; inactive = flat or rising curve; cell line not stated here;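 further: intracellular cAMP measured with PDE inhibitor Ro 20-1724 present during compound exposure; potency means the concentration at half of the fitted maximal effect; on the % scale 0 is the no-effect control and ±100 the full control effect; nearly all actives have a fitted effect of over 65% in size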
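Cells in G418 medium, seeded 16-24 h, 37C; buffer exchange to DPBS + 1 mM CaCl2, 0.5 mM MgCl2, 0.05% BSA; cpds in DMSO + […] (300 uM stock), 30 min 37C; HTRF cAMP detection.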
gsp agonist: qHTS for Agonist of gsp, the Etiologic Mutation Responsible for Fibrous Dysplasia/McCune-Albright Syndrome: qHTS; gsp mutant cells, cAMP HTRF, 30 min; control for the full effect not named in the record; Potency, µM (series often up to 76.9 µM), for the others: at the top dose activation (cAMP increase), actives largely listed as activators; actives 0.13% (n = 340,000); active = well fitted activation curve with a large enough effect; inconclusive = small, poorly fitted or top-dose-only effect, or another doubt; inactive = no such curve, though single readings can be large or run the other way; cell line not stated here;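 further: phosphodiesterase inhibitor Ro 20-1724 added with compounds to block cAMP breakdown; potency means the concentration at half of the fitted maximal effect; nearly all actives have a fitted effect of over 60% in size; about a fifth of the inactives were tested at one dose only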
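Cells stably selected in G418 were plated at 2000/well, grown 16-24 hr, then given compounds in DMSO with the PDE inhibitor […] (300 uM solution added) for 30 min at 37C; cAMP was read by HTRF.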
ClpP mod: qHTS Assay for Activators of ClpP. ATP-dependent Clp protease proteolytic subunit (Bacillus subtilis (strain 168)), P80244. purified B. subtilis ClpP, FRET peptide cleavage, 20 min. Potency, µM (doses to about 57.5 µM), without a hit: top-dose activity change, negative = active. actives 1.9% (n = 340,000). AID 651965, 2013; active = well fitted falling curve with a large enough effect; inconclusive = small, poorly fitted or top-dose-only effect; inactive = no such curve, though single readings can be large or run the other way; further: potency means the concentration at half of the fitted maximal effect; the source files actives as falling curves though it sought activators and does not explain the sign; nearly all actives have a fitted effect of over 65% in size; many hits overshoot -100%
Target sequence (P80244 whole entry, looked up): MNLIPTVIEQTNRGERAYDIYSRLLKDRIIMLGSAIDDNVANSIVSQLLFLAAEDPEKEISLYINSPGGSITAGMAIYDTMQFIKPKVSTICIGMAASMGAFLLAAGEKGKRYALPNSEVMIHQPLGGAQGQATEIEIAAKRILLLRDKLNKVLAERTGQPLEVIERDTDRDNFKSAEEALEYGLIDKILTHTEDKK
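Purified B. subtilis ClpP, 10 microg/mL final in Tris/HCl pH8 with KCl, BSA, glycerol and Tween-20, cleaved an Abz/nitrotyrosine-quenched decapeptide. Fluorescence (ex 320, em 430) was read at 0 and 20 min at room temperature. Delta was normalized to 5.8 microM ADEP and DMSO/no-enzyme controls.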
TRPML1 ag: qHTS for Agonists of the Human Mucolipin Transient Receptor Potential 1 (TRPML1); Mucolipin-1 (Homo sapiens), Q9GZU1; TRPML1-expressing cells, Ca2+ dye fluorescence, FDSS; host cell line not named in the record; reference of the full effect not given here; activation, % (concentration not given with the values); actives 0.12% (n = 410,000); in the data active = activation above about 50%; inconclusive = about 30% to 50%; inactive = below about 30%; further: 0% is about no effect; the text of the record puts the active cut at 80%
Target sequence (Q9GZU1 whole entry, looked up): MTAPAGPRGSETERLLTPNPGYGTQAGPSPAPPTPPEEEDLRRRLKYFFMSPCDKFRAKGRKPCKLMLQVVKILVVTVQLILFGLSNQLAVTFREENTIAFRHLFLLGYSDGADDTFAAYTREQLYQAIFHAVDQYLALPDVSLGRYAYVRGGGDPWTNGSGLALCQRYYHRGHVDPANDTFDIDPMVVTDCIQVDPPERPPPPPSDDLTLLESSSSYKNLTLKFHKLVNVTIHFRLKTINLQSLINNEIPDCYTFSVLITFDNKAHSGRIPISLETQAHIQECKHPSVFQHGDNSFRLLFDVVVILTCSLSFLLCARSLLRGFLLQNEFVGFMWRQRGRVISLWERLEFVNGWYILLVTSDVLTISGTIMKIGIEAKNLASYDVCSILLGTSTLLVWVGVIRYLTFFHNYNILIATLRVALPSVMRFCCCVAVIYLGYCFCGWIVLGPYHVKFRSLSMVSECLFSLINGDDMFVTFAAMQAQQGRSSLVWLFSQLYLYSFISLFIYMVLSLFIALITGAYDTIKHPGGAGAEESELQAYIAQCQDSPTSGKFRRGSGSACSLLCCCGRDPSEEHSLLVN
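TRPML1-DL cells, Tet-induced overnight (~16 h, 37 degrees C), loaded 45-90 min at room temperature with Ca8 no-wash calcium dye plus quencher. FDSS fluorescence: 10 s baseline, compound pin-transfer, 110 s agonist read, then EC80 54-4 (4uM final) and 110 s antagonist read.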
Menin MLL FP FL: qHTS Assay for Inhibitors Targeting the Menin-MLL Interaction in MLL Related Leukemias: Competition With Fluorescein Labeled MLL-derived Peptide | AID 1766, 2009 | 290,000 tested, under 10 active | FP activity change, % at 61.4 µM | Fluorescence polarization, fluorescein-MLL peptide displacement from menin; inconclusive = falling polarisation curve, or a change in total fluorescence; inactive = total fluorescence flat and polarisation flat or rising; no compound was filed as active; the % refers to the polarisation; negative = inhibition;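 further: % of control where 0% means no effect; inhibitors lower the polarisation; unlabelled MLL peptide was the positive control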
TRPML1 blocker: qHTS for Inhibitors of the Human Mucolipin Transient Receptor Potential 1 (TRPML1). AID 624415, 2012. actives 0.02% (n = 390,000). Mucolipin-1 (Homo sapiens), Q9GZU1. TRPML1-inducible cells, Ca2+ dye fluorescence, FDSS; stronger effect = lower value; inhibition of EC80 agonist-evoked calcium signal. activity change, negative = inhibition, % (no concentration beside the values); in the data active means activity change below about -50%; inconclusive means about -30% to -50%; inactive means above about -30%;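 further: stimulus is agonist 54-4 at its EC80 concentration; on the % scale 0 is the no-effect control and ±100 the full control effect; compound concentration not given in the record; the text of the record puts the active cut at -80%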
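Calcium fluorescence in TRPML1-DL cells induced overnight with Tet: a 110 s read after compound pin addition, then a 110 s antagonist read after challenge with 54-4 at 4 uM final (EC80).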
* marks the source's active call; other numbers are inactive results; u = inconclusive; x = no result given; & = joins results of further samples; [ ] = dose if it differs, or a comment.

SMILES	gsp antagonist	gsp agonist	ClpP mod	TRPML1 ag	Menin MLL FP FL	TRPML1 blocker
Cc1ccc(C(=O)Nc2cnc3ccccn3c2=O)cc1	5%	32%	-18%&-11%	-0.8&0.3	-0.4	17&9
CC(Oc1ccccc1)C(=O)Nc1cccc(F)c1 (centres undefined)	-5%	16%	0.3%	0.6	0.0	17
CCOC(=O)c1c(NC(=O)/C=C/c2ccc3c(c2)OCO3)sc(C)c1CC	3%	-54%[inhibitor]	-5.3%	-1.0	3.6	3
CCc1c(C2(O)CCCCC2)[nH]c2c(C(=O)OC)cc(Cl)cc12	-22%	x	-30%	-0.5	-3.2	52
Cc1ccccc1C(OCCN(C)C)C1CCCCC1 (centres undefined)	20%	-1%	-1.5%	1.0	1.3	-2
O=[N+]([O-])c1cccc(S(=O)(=O)N2CCN(S(=O)(=O)N3CCCCCC3)CC2)c1	13%	-30%	x	2.4	0.8	-17
COc1ccc(-n2cnc(=S)[nH]c2=S)cc1	-14%	-3%	x	-1.1	x	-8
CC(C)Oc1ccc(S(=O)(=O)N2CCOCC2)cc1NC(=O)C1COc2ccccc2O1 (centres undefined)	u	-11%	0.3%	-1.1	x	-2
Cc1cc(NC(=O)C2CCN(C(=O)c3ccco3)CC2)ccc1Br	-11%	10%	-1.4%	0.3	x	17
O=C1C=C(O)C(n2cncn2)C(c2ccc3c(c2)OCO3)C1 (centres undefined)	-3%	2%[15.4 µM]	x	0.1	4.1	-6
COc1ccc(C)cc1-n1nnnc1SCc1cn2ccsc2n1	-5%	0%	0.6%	1.4	3.2	2
CC(=O)Nc1ccc(C(=O)COC(=O)C2CC2)c(F)c1	3%	6%[15.4 µM]	x	0.6	x	-7
C=CCN(CC=C)C(=O)CN1C(=O)NC(Cc2c[nH]c3ccccc23)C1=O (centres undefined)	13%	-6%	x	-0.4	-4.6	-1
Cc1cccc(Cc2ncc(C(F)(F)F)cc2Cl)c1	7%	-1%	-2.9%	1.1	0.5	-8
CCOC(=O)c1[nH]c(C)c(C(=O)NC)c1C	3%	-2%	2.7%	-0.2	2.8	15
Cc1ccc(-n2nnnc2SCC(=O)N2CCN(C(=O)c3ccco3)CC2)c(C)c1	11%	-2%	0.4%	-0.7	-0.2	7
CCOC(=O)c1c(-c2ccccc2)nc2c(C)cccn12	0%	5%	-6.3%	1.4	2.6	-1
CC(C)N1C(=S)N(Cc2ccco2)C(=O)C1CC(=O)Nc1ccccc1 (centres undefined)	9%	-12%[15.4 µM]	x	-0.1	0.6	7
COc1ccc(Br)cc1/C=N/n1nnnc1N	5%	-56%[inhibitor]	-5.7%	x	-3.9	x
CC1CN(C(=O)CN2C(=O)NC3(CCCC3)C2=O)C(=Nc2cccc(S(=O)(=O)N(C)C)c2)S1 (centres undefined)	-5%	u	-0.6%	-0.4	x	8
COc1ccc(C(=O)NCC(=O)N2CCCC(C(F)(F)F)C2)cc1OC (centres undefined)	4%	16%[15.4 µM]	-9.5%	-0.1	x	8
O=C(COC(=O)/C=C/c1ccco1)NCc1ccccc1Cl	11%	u	x	-0.7	-0.4	4
CCCn1c2c(c(O)c(C(=O)Nc3nc4ccccc4s3)c1=O)CCCC2	x	-2%[15.4 µM]	x	-0.3	0.4	-12
O=C(CC1N=C2c3ccccc3N=C(SCc3ccccc3Cl)N2C1=O)NC1CCCCC1 (centres undefined)	x	x	-4.1%	2.0	x	34
Cc1ccc(C(=O)NC(=S)Nc2ccc3[nH]c(=O)[nH]c3c2)cc1	4%	9%	-3.5%	1.3	1.4	-2
Cc1onc(-c2ccc(Br)cc2)c1C(=O)Nc1ccc(Br)cc1F	x	x	0.9%	-0.1	x	-22
Cc1ccc(S(=O)(=O)Nc2cc3c4c(c2)CCC(=O)N4CCC3)cc1	4%	22%[15.4 µM]	x	-0.6	x	1
Cc1ccc(S(=O)(=O)N2CCN(CC(=O)Nc3ccc(N4CCOCC4)cc3)CC2)cc1C	14%	7%	-2.0%	0.0	3.4	-7
O=C(c1ccncc1)N1N=C(c2ccc(Br)cc2)CC1c1ccccc1O (centres undefined)	u	-2%[15.4 µM]	x	-0.2	-2.6	-5
COc1ccc(C2C(C(=O)c3ccco3)=C(O)C(=O)N2CCOCCO)cc1OC (centres undefined)	10%	-6%	-1.4%	0.6	8.0	3
N#CCC(=O)NNC(=S)NC(=O)C(c1ccccc1)c1ccccc1	0%	-2%[15.4 µM]	x	0.9	-7.4	4
NC(=O)CN1CCN(C2CC(=O)N(CCc3ccccc3)C2=O)CC1 (centres undefined)	14%	5%	x	-0.2	-3.1	-21
CN(CC(=O)NCCc1ccc(Cl)cc1)S(=O)(=O)c1cccs1	7%	-29%	x	-0.4	0.9	17
CC12CC(=O)C3C(CCC4=CC(=O)CCC43C)C1CC=C2CC(=O)O (centres undefined)	-13%	8%	x	1.0	x	-13
Cc1ccccc1NC(=O)C(=O)NC(C)CCc1ccccc1 (centres undefined)	10%	8%	-1.2%	-0.1	3.8	-4
CCc1ccc(Nc2cc(C)nc3ncnn23)cc1	-12%	5%[15.4 µM]	-0.6%	0.5	-4.0	-10

Single records, from the list above. Order of screens: gsp antagonist | gsp agonist | ClpP mod | TRPML1 ag | Menin MLL FP FL | TRPML1 blocker
N#CCC(=O)NNC(=S)NC(=O)C(c1ccccc1)c1ccccc1 as listed: 0% | -2%[15.4 µM] | x | 0.9 | -7.4 | 4
CC(C)N1C(=S)N(Cc2ccco2)C(=O)C1CC(=O)Nc1ccccc1 (centres undefined) as listed: 9% | -12%[15.4 µM] | x | -0.1 | 0.6 | 7
O=C(c1ccncc1)N1N=C(c2ccc(Br)cc2)CC1c1ccccc1O (centres undefined) as listed: u | -2%[15.4 µM] | x | -0.2 | -2.6 | -5

Further entries.
SMILES	gsp antagonist	gsp agonist	ClpP mod	TRPML1 ag	Menin MLL FP FL	TRPML1 blocker
CCCOc1ccc(/C=C/C(=O)N2CCOCC2)cc1	1%	-9%	-3.9%	1.1	-1.8	52
CCSc1nnc(NC(=O)CSc2nnc(CNC(=O)c3ccc(OC)c(OC)c3)o2)s1	6%	2%	-2.4%	0.9	3.7	-21
CC1(C)CC2(CCCN3C(=O)CSC32)CCS1 (centres undefined)	2%[15.4 µM]	-14%	1.1%	-0.2	0.8	-15
COc1ccc(OC)c(NC(=O)CN(C)CC(=O)Nc2ccccc2Cl)c1	-10%	-1%[15.4 µM]	x	0.3	3.6	-10
COc1ccc(OC)c(Cc2nnc(CCC(=O)NCc3ccc(C)s3)o2)c1	8%	13%	2.1%	4.1	-0.8	1
Cc1ccccc1Cn1cc(S(=O)(=O)c2ccc(F)cc2)c(=O)c2cc3c(cc21)OCO3	x	x	-21%	-0.3	x	-1
CC1CCN(C(=S)c2ccc(O)cc2)CC1	6%	-3%	-0.5%	-0.5	1.5	0
COc1ccc(CCN2CC(C(=O)Nc3cc(F)ccc3F)CC2=O)cc1OC (centres undefined)	-3%	-12%[15.4 µM]	x	0.2	x	0
O=C(CC12CC3CC(CC(C3)C1)C2)NCc1ccco1	14%	-27%	0.4%	1.8	0.1	3
CC(C)(C)c1nnc(N/N=C/c2cc(Br)ccc2O)n(N)c1=O	28µM*	-6%	-1.7%	1.4	4.6	19
CCOc1ccccc1C(=O)Nc1ccc2nc(N3CCN(c4ncccn4)CC3)cc(C)c2c1	-23%	-73%[inhibitor]	-4.5%	0.8	x	27
O=C(NNS(=O)(=O)c1ccc(F)cc1)C1CCN(S(=O)(=O)c2ccccc2)CC1	13%	1%[15.4 µM]	x	0.4	3.4	12
O=C(Cn1ccn(-c2ccc(F)c(F)c2)c(=O)c1=O)NCc1ccccc1	x	x	1.0%	-0.3	x	0
CC1CCCN(c2ccc([N+](=O)[O-])cc2C(=O)c2ccccc2)C1 (centres undefined)	-3%	u	-1.6%	3.1	1.9	20
COc1ccc(OC)c(CN2CCSCC2)c1	3%	3%[15.4 µM]	0.4%	-0.3	1.2	4
Cc1ccc([C@H]2C(C#N)=C(N)Oc3cc(C)oc(=O)c32)o1	11%	-4%[15.4 µM]	x	0.9	1.8	9
CCCn1nc(C(=O)NNC(=O)CCOc2ccccc2OCC)c2ccccc2c1=O	-12%	-7%[15.4 µM]	x	-0.8	x	-6
O=C(CCc1c[nH]c2ccccc12)N[C@@H](Cc1c[nH]c2ccc(O)cc12)C(=O)O	7%	-51%[inhibitor]	-5.9%	0.5	-2.6	48
COC(=O)C1=C(N)Oc2cc(C)n(Cc3cccnc3)c(=O)c2C1c1ccccc1OC (centres undefined)	0%	-15%	-0.7%	-1.0	3.7	2
Cn1c(Cn2c(=O)sc3ccccc32)nnc1SCC(=O)NCc1ccccc1	2%	u	-0.5%	0.4	4.0	39
COc1ccc(CC(=O)NNC(=O)CCc2ccccc2)cc1	9%	11%[15.4 µM]	x	2.9	3.6	15
Cc1ccc(-n2ncc3c(=O)n(Cc4ccccn4)cnc32)cc1C	0%	2%	-14%	0.4	6.2	23
Cc1nn(-c2ccccc2)c(C)c1C(=O)OC(C)C(=O)NC1CCCCC1 (centres undefined)	-7%	u	x	1.3	x	8
COC(=O)C1C(=O)C2=C(CC1C)NC(=O)CC2c1ccc(O)c(OC)c1 (centres undefined)	6%	22%	-2.6%	0.3	5.2	1
NC(=O)COC(=O)CCSc1ccc(Cl)cc1	-15%	-20%[15.4 µM]	1.1%	-1.3	1.3	-17
CN(C)c1ccc(NC(=S)N2CCN(c3ncc(C(F)(F)F)cc3Cl)CC2)cc1	0%	15%[15.4 µM]	-2.7%	0.6	2.0	19
Cc1cccc(OCCCC(=O)Nc2ccc(N(C)C)cc2)c1	-1%	23%	-0.2%	0.8	20	6
CCSc1nc(N)c2c(C)c(C)sc2n1	11%	5%	-3.8%	1.0	2.4	-13

Not a hit list; about 2.1% have a hit in one of these screens.
